A488 fluor – compound autofluorescence in A488 spectral region | actives 0.1% (n = 59,000) | max dye equivalency, M | compound autofluorescence, A488 spectral region, dye equivalency; active compounds read high | AID 591; active = above 10 nM dye equivalent; inconclusive = 1 to 10 nM; inactive = 1 nM or less; about half of its hits are not listed in these tables;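 further: highest value over a series up to 38 µM; compound alone in buffer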
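Compound autofluorescence was read in 100 mM Tris pH 8.0 after 15 min at room temperature, ex 480 nm/em 540 nm. Intensities were converted to A488 dye-equivalent concentration using an on-plate six-point A488 standard curve.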
A647 fluor – compound autofluorescence in A647 spectral region; Compound fluorescence, A647 channel (570/671 nm), Tris buffer; AID 592; 59,000 tested, under 10 active; max dye-equivalent concentration, M; active means above 1 µM dye equivalent; inconclusive means 0.1 to 1 µM; inactive means 0.1 µM or less;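 further: values scaled relative to a standard on each plate; highest value over a series up to 38 µM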
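Buffer was dispensed, compounds and Alexa 647 standards were pin-transferred, and plates sat 15 min at room temperature. Intensity at 570/671 nm was then converted to dye-equivalent concentration using the plate's A647 standard curve.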
AID923 – qHTS Assay for Allosteric/Competitive Inhibitors of Caspase-1: Spectroscopic Profiling in AFC Spectral Region. compound fluorescence, AFC spectral region (405/520 nm); almost no hit is shown here. Potency, µM (highest dose often 57.5 µM), without a hit: at the highest dose fluorescence increase, usual class: activators. actives 1.1% (n = 75,000). AID 923, 2007; active means well fitted activation curve with a large enough effect; inconclusive means small, poorly fitted or top-dose-only effect;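 further: potency means the concentration at half of the fitted maximal effect; 0% is about no effect; scaled to a free AFC standard on each plate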
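Compound autofluorescence profiled at 405 nm ex/520 nm em during kinetic caspase 1 run (50 nM enzyme, 5 uM Ac-WEHD-AFC, HEPES pH 7.5, 10 mM DTT). Titration up to 57 uM; baseline from regression intercept, normalized to AFC standard curve.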
Resorufin autofl – compound fluoresces in the resorufin spectral region. actives 0.04% (n = 59,000). Compound fluorescence, resorufin region 547/598 nm, buffer; active compounds read high. max dye-equivalent concentration, M; active = above 10 nM dye equivalent; inconclusive = 1 to 10 nM; inactive = 1 nM or less; a few of its hits are not listed in these tables; further: highest value over a series up to 38 µM
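Compounds in 100 mM Tris, pH 8.0, incubated 15 min at room temperature, then fluorescence read at 547 nm excitation/598 nm emission. Signal converted to dye-equivalent concentration via an on-plate six-point resorufin standard curve, per compound concentration.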
TSHR ag – agonists of human thyroid stimulating hormone receptor; HEK293-CNG-TSHR cells (CNG channel as cAMP sensor), membrane potential dye, cAMP; Potency, µM (top dose mostly 57.1 µM), for inactives: at the top dose activation, hits mostly activators; actives 0.48% (n = 73,000); AID 926; active = well fitted activation curve of enough size with the parental cells flat; inconclusive = any curve in the parental cells; inactive = parental cells flat and receptor cells flat or falling; further: potency means the concentration at half of the fitted maximal effect; % of control where 0% means no effect; weak receptor curves with flat parental cells got no call and are not listed
Target sequence (P16473 whole entry, looked up): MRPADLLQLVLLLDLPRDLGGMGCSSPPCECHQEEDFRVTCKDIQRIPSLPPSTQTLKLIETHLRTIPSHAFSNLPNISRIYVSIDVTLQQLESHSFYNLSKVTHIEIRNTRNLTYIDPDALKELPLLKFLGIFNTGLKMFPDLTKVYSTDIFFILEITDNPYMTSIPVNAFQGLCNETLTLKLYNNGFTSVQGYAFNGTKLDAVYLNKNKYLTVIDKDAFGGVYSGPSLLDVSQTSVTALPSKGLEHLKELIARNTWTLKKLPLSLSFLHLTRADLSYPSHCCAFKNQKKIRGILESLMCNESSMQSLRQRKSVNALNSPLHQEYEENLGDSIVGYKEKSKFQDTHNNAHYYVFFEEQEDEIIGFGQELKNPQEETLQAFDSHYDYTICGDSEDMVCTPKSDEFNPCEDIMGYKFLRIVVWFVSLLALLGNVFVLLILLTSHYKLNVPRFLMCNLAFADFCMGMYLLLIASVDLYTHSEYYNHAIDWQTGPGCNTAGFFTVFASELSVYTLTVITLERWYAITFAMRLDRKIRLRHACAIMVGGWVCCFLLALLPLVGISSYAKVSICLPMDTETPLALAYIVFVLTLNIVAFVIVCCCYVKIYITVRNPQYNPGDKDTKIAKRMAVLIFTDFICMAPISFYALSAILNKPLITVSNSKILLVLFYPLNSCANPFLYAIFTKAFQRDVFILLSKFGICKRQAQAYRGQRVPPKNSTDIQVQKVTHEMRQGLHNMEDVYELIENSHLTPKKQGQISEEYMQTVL
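HEK 293 cells stably expressing TSHR and a cAMP-gated CNG channel; parental CNG-only cells as counterscreen. Cells preloaded 60 min with membrane potential dye plus 100 uM RO 20-1724, then compound 30 min; fluorescence read at 590 nm.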
* marks the source's active call; other numbers are inactive results; i = inactive; ? = inconclusive; nt = not tested or not shown; & = joins results of further samples; [ ] = remark or other dose. The list is partial; count on the stated rates, not on these rows.

SMILES | A488 fluor | A647 fluor | AID923 | Resorufin autofl | TSHR ag
COc1ccc(C)cc1S(=O)(=O)Nc1cccc(SC)c1 | i | 7.1e-09 | 1.6% | i | 3%
CCOC(=O)C1=C(C)NC2=C(C(=O)CCC2)C1c1cccs1 (stereo not drawn) | i | 1e-09 | 2.4% | i | nt
CCCCNc1nc(C)nc2c1nc(-c1ccccc1)n2CCCN(C)C | nt | nt | 0.9% | nt | 22%
Cc1c(Cl)cccc1NC(=O)CC(C(=O)O)C1CCCO1 (stereo not drawn) | i | 1e-09 | 0.5% | i | -1%
O=C(Nc1ccc(NC(=O)C2CC2)nc1)c1ccco1 | i | 1.9e-08 | -0.2% | i | ?
Cc1cc(C)n(C(=O)CNC(=O)c2cccs2)n1 | i | 7.1e-08 | nt | i | nt
O=C(NCc1ccccn1)c1c(O)c2c([nH]c1=O)CCCC2 | i | 3.7e-08 | -0.1% | i | -1%
O=C(NC1CCCCC1)c1ccc(S(=O)(=O)N2CCOCC2)cc1 | nt | nt | 0.5% | nt | 0%
CC(C)CCNC(=O)CCNS(=O)(=O)c1ccc(Cl)cc1 | i | 2.9e-08 | -2.5% | i | 4%
Cc1ccc(C(C)C)c(Oc2nnnn2-c2ccccc2)c1 | i | 2.1e-08 | -0.3% | i | nt
COc1ccc(OC)c(S(=O)(=O)N2c3cc(F)ccc3CCC2C)c1 (stereo not drawn) | i | 1.5e-08 | -0.9% | i | ?
CCCc1cc(C(N)=O)c(NC(=O)C2CCCO2)s1 (stereo not drawn) | i | 2.8e-08 | 2.7% | i | ?
c1csc(-c2nn3c(C4CCCCC4)nnc3s2)c1 | i | 1e-09 | nt | i | nt
N#CC1=C(N)OC2=C(C(=O)CCC2)C12CCN(C(=O)OCc1ccccc1)CC2 | i | 3.4e-08 | 0.1% | i | -3%
O=C(CSc1ncc(-c2ccc(F)cc2)n1Cc1ccco1)Nc1ccc2c(c1)OCO2 | i | 1e-09 | 1.5% | i | ?
CCCc1cc2c(c(=O)o1)C(O)C1OC1C2=O (stereo not drawn) | nt | nt | -6.0%[11.5 µM] | nt | -11%[11.4 µM]
CCn1c(SCC(=O)Nc2ccccc2C(=O)OC)nnc1-c1ccc(N)cc1 | i | 1e-09 | nt | i | nt
CCn1c(C)c(C(C)=O)c(N2CCC(C(N)=O)CC2)nc1=S | i | 1e-09 | -6.7% | i | 0%
Cc1csc(-c2cnn(-c3ccccc3)c2NC(=O)c2ccccc2)n1 | i | 1e-09 | -2.4% | i | ?
COc1ccc(C(=O)NC2CC3CCCC(C2)N3CC(C)C)cc1OC (stereo not drawn) | i | 1e-09 | 0.5% | i | 1%
CCOC(=O)c1c(N)sc(C(=O)N2CCOCC2)c1C | i | 3.2e-09 | -0.4% | i | 3%
CCN(CC)c1ccc(NC(=O)CN2CCN(CC(=O)Nc3ccc(F)cc3)CC2)cc1 | i | 2.6e-09 | 0.6% | i | -4%
CCOC(=O)C(NC(=O)CC)(Nc1ccc(S(=O)(=O)Nc2ncccn2)cc1)C(F)(F)F (stereo not drawn) | i | 2.7e-08 | 0.2% | i | -2%
CC(=O)c1ccc(NC(=O)c2noc3c2CCCCC3)cc1 | i | 1e-09 | -2.6% | i | -5%
Cc1cn[nH]c1 | i | 2.1e-09 | -0.9% | i | 1%

Part of the list above with just Resorufin autofl.
Compound	Resorufin autofl
c1csc(-c2nn3c(C4CCCCC4)nnc3s2)c1	i
N#CC1=C(N)OC2=C(C(=O)CCC2)C12CCN(C(=O)OCc1ccccc1)CC2	i
O=C(CSc1ncc(-c2ccc(F)cc2)n1Cc1ccco1)Nc1ccc2c(c1)OCO2	i

(continued)
SMILES | A488 fluor | A647 fluor | AID923 | Resorufin autofl | TSHR ag
COc1ccc(-n2c(=O)c(-c3cn(C)c4ccccc34)nc3cnc(N4CCNCC4)nc32)cc1 | i | 1.4e-08 | 21% | i | ?
Cc1ccc(C(C(=O)NC(C)(C)C)N(CC2CCCO2)C(=O)Cn2nnc(-c3ccc(C)o3)n2)cc1 (stereo not drawn) | i | 5.3e-09 | -1.9% | i | ?
O=c1c2cc(N3CCOCC3)ccc2[nH]c(=S)n1CCCN1CCN(c2ccccc2F)CC1 | i | 1.2e-08 | 3.0% | i | -45%[inhibitor]
CC(C)n1c(N2CCN(CC(=O)NCc3cccs3)CC2)nc2ccccc21 | i | 1e-09 | 0.4% | i | 14%
O=C(CSc1nc2ccccc2c(=O)n1CC1CCCO1)NCC1CCCO1 (stereo not drawn) | i | 2.8e-08 | 0.0% | i | 7%
Clc1cccc2sc(N3CCCCC3)nc12 | i | 2.9e-08 | 1.2% | i | 8%
CCOC(=O)c1c(C)[nH]c(C(=O)OCC(=O)N2CCN(S(=O)(=O)c3ccccc3)CC2)c1C | i | 1.6e-09 | 2.5% | i | 1%
O=C(c1csnn1)N1CCC2(CC1)CN(c1ccccc1)C2 | i | 1.3e-09 | 0.1% | i | 2%
NCCc1cnc[nH]1 | i | 1e-09 | -0.4%&0.9%&0.6% | i | ?
Cc1ccc(S(=O)(=O)NCC(=O)N(CC(=O)NC2CCCCC2)Cc2ccco2)cc1 | i | 1.1e-08 | -0.9% | i | 10%
COc1ccccc1NC(=O)CSc1nnc(C)n1Cc1ccccc1 | i | 2.9e-09 | -0.8% | i | 4%[11.4 µM]
COC(=O)C(NC(C)=O)(Nc1ccc(Br)cc1)C(=O)OC | i | 4.2e-08 | nt | i | nt
CC(=O)Nc1nc(-c2ccccc2)nc(C)c1C(C)=O | nt | nt | 0.8% | nt | -2%
O=C(NCC1COc2ccccc2O1)c1cn(Cc2ccc(F)cc2)nn1 (stereo not drawn) | i | 1e-09 | 1.0% | i | -3%
Cn1c(=O)c2c(nc(SCCN3CCCCC3)n2Cc2ccccc2)n(C)c1=O | i | 1.3e-08 | -1.1% | i | 4%
COc1ccccc1-c1nnc(NC(=O)C(C)C)s1 | i | 2.8e-08 | 0.7% | i | nt
CCOC(=O)c1c(C)n(C)c2ccc(OC)c(NC(=O)c3cccs3)c12 | i | 2.2e-08 | nt | i | nt
COCc1[nH]nc2c1C1(C(=O)Nc3ccc(F)cc31)C(C#N)=C(N)O2 (stereo not drawn) | i | 2e-09 | 2.5% | i | 7%
CCOC(=O)c1ccc(NS(=O)(=O)c2cccc3nsnc23)cc1 | i | 1e-09 | -1.1% | i | -8%
O=C(Cn1cnc2ccccc2c1=O)N(Cc1ccco1)c1ccc(O)cc1 | nt | nt | 0.0% | nt | 19%
N#Cc1c(N)oc(-c2ccccc2)c1-c1ccccc1 | i | 6.6e-08 | -2.3% | i | -3%
Cn1nnnc1SCCNS(=O)(=O)c1ccccc1 | i | 1e-09 | 0.5% | i | -4%
COC(=O)C1=C(CSc2nnnn2C)NC(=O)NC1c1cc(C)ccc1C (stereo not drawn) | i | 3.6e-08 | -1.3% | i | 14%
CCC(C)(C)NC(=O)C(c1ccccc1F)N(Cc1ccco1)C(=O)c1csnn1 (stereo not drawn) | i | 2.5e-08 | -0.9% | i | 20%
Cc1ccc(C)c(SCC(=O)OCC(=O)Nc2ccc(S(=O)(=O)N3CCOCC3)cc2)c1 | i | 1e-09 | -0.5% | i | -5%

Given as tab-separated lines: 4 of the compounds above
smiles	A488 fluor	A647 fluor	AID923	Resorufin autofl	TSHR ag
O=c1c2cc(N3CCOCC3)ccc2[nH]c(=S)n1CCCN1CCN(c2ccccc2F)CC1	i	1.2e-08	3.0%	i	-45%[inhibitor]
CC(C)n1c(N2CCN(CC(=O)NCc3cccs3)CC2)nc2ccccc21	i	1e-09	0.4%	i	14%
O=C(CSc1nc2ccccc2c(=O)n1CC1CCCO1)NCC1CCCO1 (stereo not drawn)	i	2.8e-08	0.0%	i	7%
Clc1cccc2sc(N3CCCCC3)nc12	i	2.9e-08	1.2%	i	8%

(list continues)
SMILES | A488 fluor | A647 fluor | AID923 | Resorufin autofl | TSHR ag
O=C(CSc1nnc(Cc2cccs2)n1Cc1ccco1)Nc1ccc(Br)cc1 | i | 4e-09 | -1.4% | i | ?
CCCN1c2cccc3cccc(c23)S1(=O)=O | i | 6.9e-09 | 6.1% | i | 9%
CC1=C/C(=N/O)C([C@H]2C=C(C)CC(C)(C)[C@@H]2O)C(C)(C)C1 (stereo partly drawn) | i | 1e-09 | -0.4%[11.5 µM] | i | 7%[11.4 µM]
O=C(NCCCCN1CCCC1)c1ccc(Cc2nc3ccccc3[nH]2)cc1 | nt | nt | 0.3% | nt | -4%
CCOC(=O)NC(=O)CSc1nnc(C)s1 | i | 1e-09 | 1.4% | i | 3%
O=C(c1ccc(CSCc2ccccc2F)o1)N1CCN(c2ccc(N3CCOCC3)nn2)CC1 | nt | nt | 18% | nt | ?
COc1ccc(C(=O)NCCn2cc(SCC(=O)Nc3cc(C)on3)c3ccccc32)cc1OC | i | 1.9e-09 | 1.5% | i | 7%
COc1cccc(C2CC(c3cccc(OC)c3)n3nc(N)nc3N2)c1 (stereo not drawn) | nt | nt | -3.3% | nt | 9%
O=C(c1cnccn1)N1CCC2(CCN(Cc3nccs3)CC2)CC1 | i | 2.7e-08 | 1.1% | i | 11%
CSc1nnc(CNC(=O)c2ccccc2)n1-c1ccc(F)cc1 | nt | nt | -1.1% | nt | 4%
c1cc(-c2nc3cc(Oc4ccc5oc(-c6ccncc6)nc5c4)ccc3o2)ccn1 | i | 2e-08 | -2.4% | i | ?
COC(=O)CSc1nnc(-c2ccc(NS(=O)(=O)c3ccccc3)cc2)o1 | i | 1e-09 | -2.6% | i | -32%[inhibitor]
O=C(Cn1ncc2c(=O)oc3ccccc3c21)N(Cc1ccco1)C1CCCCC1 | nt | nt | 0.1% | nt | ?
c1cc(-c2nc3ccccc3o2)nc(-c2nc3ccccc3o2)c1 | i | 3.7e-09 | -1.0% | i | 2%
Cc1csc2nc(CNC(=O)c3ccco3)cn12 | i | 1.5e-08 | 0.6% | i | 14%[11.4 µM]
Oc1ccccc1Nc1nc(NCC2CCCO2)c2ccccc2n1 (stereo not drawn) | i | 4.6e-08 | 0.9% | i | -34%[inhibitor]
C/C(=N\O)c1c(C)c2ccccc2n1C | i | 3.2e-09 | nt | i | nt
Cc1occc1C(=O)Nc1ccccc1NC(=O)c1ccoc1C | i | 5.7e-09 | -0.1% | i | 40%
CCOC(=O)c1cc(OC(=O)c2cccnc2)n(-c2ccccc2)n1 | i | 4e-09 | 0.0% | i | 3%
COc1cc(S(=O)(=O)N(Cc2cccs2)CC2CCCO2)ccc1-n1cnnn1 (stereo not drawn) | i | 3.4e-08 | -1.5% | i | ?
O=C(O)[C@@H]1[C@@H](C(=O)NCc2ccccn2)[C@@H]2C=C[C@@H]1O2 | i | 1e-09 | -2.1%[11.5 µM] | i | 3%[11.4 µM]
CCOC(=O)N1CCN(c2nc(C(F)(F)F)nc3c(C)cc(C)cc23)CC1 | i | 1e-09 | 2.4% | i | ?
CNC(=O)CN(c1cccc2ccccc12)S(C)(=O)=O | i | 2e-08 | 2.5% | i | 2%
COc1cc([C@@H]2[C@H]3CNCC=C3C(C#N)=C(N)C2(C#N)C#N)ccc1OC(C)C | i | 9.2e-08 | nt | i | nt
CCn1c(SCC(=O)Nc2ccc(OC)c(OC)c2)nnc1-c1cccs1 | i | 1.4e-08 | -0.4% | i | -4%
Cn1c(=O)[nH]c(=O)c2c1nc(N1CCCC1)n2CCCSc1nc2ccccc2o1 | i | 1e-08 | -1.1% | i | 0%
COc1ccc(CCN2C(=O)c3[nH]nc(-c4ccccc4O)c3C2c2ccc(C)cc2)cc1OC (stereo not drawn) | i | 1e-09 | 0.4% | i | ?
NC(N)=NNC(=O)C(=O)O | i | 1e-09 | -3.1%[11.5 µM] | i | 1%[11.4 µM]

From PubChem
